Screens: PubChem BioAssay, several laboratories
Beta2AR agonist – beta2AR agonists driving receptor internalization, primary screen, cell-based, FAP fluorogen, flow cytometry; actives 0.43% (n = 340,000); Beta-2 adrenergic receptor (Homo sapiens), P07550; response, % (no concentration beside the values); Am2.2-beta2AR cells; reference of the scale not given here; AID 504454, 2011;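 active means response above a set limit, near 3 SD of response in nonfluorescent compounds, cut at about 42% in these data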;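 further: stock transfer was 100 nL into about 11 µL; a reference agonist was the positive control; negative values mostly stem from fluorescent compounds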
Target sequence (P07550 whole entry, looked up): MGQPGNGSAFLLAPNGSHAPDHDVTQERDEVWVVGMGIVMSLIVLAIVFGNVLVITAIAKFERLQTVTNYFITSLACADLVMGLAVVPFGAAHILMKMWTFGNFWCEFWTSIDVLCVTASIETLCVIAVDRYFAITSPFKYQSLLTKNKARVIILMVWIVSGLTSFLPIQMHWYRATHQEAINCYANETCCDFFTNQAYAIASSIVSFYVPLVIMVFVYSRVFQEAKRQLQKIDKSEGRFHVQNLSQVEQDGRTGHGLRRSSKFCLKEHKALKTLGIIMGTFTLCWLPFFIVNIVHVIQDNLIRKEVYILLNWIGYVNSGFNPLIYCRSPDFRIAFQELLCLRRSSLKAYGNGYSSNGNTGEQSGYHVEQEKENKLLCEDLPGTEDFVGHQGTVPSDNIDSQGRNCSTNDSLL
LANA-H2B inh – blockers of LANA interaction with H2A/H2B – biochemical, FP readout, HTS, primary screen. actives 0.6% (n = 320,000). inhibition, % (concentration not given with the values). Protein LANA1 (Human herpesvirus 8 type P (isolate GK18)), Q9QR71. cell-free LANA-H2A/H2B peptide, fluorescence polarization; in the data active means inhibition mostly above about 10%, no sharp cut-off; inactive means mostly below about 6.7%;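 further: stock transfer was 7.5 nL into about 10 µL; 0% = median of vehicle wells and 100% = median of positive control wells; one replicate is shown; the record names a cut of 25% in any replicate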
UCH37 inh – inhibitors of human UCH37 deubiquitinase, primary screen, biochemical, Ub-AMC cleavage, fluorescence. purified proteasome/UCH37. inhibition, % (no concentration beside the values). actives 0.33% (n = 330,000);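 active means mean of two replicates above 20%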;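 further: 0% = compound-free wells with enzyme and 100% = wells lacking proteasome; stock transfer was 100 nL into about 20 µL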
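assay system = human UCH37 enzyme supplied as purified proteasome complex | amount = proteasome at 0.15 nM in the dispensed enzyme solution | schedule = 30 min compound-proteasome preincubation then 25 min substrate reaction, room temperature | measured by = fluorescence, ex 355 nm, em 460 nm | benchmarks = no-proteasome wells (full inhibition) and compound-free wells (no inhibition)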
ALR inh – inhibitors of human ALR sulfhydryl oxidase, primary screen, biochemical, H2O2 detection, HRP-luminol luminescence, single point. purified ALR, DTT oxidation. inhibition, % (concentration not given with the values). actives 3.8% (n = 290,000). AID 485317, 2010;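 active means mean and each replicate at 75% or more; inconclusive means only one of the two met; inactive means neither met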;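 further: stock transfer was 7.5 nL into about 7.5 µL; 0% = neutral wells and 100% = wells with inactivated enzyme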
Target sequence (P55789 whole entry, looked up): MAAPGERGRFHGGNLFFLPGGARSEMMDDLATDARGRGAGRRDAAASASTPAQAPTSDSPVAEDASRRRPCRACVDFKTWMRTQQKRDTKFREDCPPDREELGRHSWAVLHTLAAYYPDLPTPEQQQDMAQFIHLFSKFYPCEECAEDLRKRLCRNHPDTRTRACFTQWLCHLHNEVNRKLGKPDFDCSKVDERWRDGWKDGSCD
Ecoli growth – E. coli growth inhibition, primary screen, OD600; Escherichia coli growth, 23 h; hits give low values; OD600 absorbance (no concentration beside the values); actives 0.21% (n = 330,000); AID 1053175, 2014;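 active means OD600 absorbance below the run mean of sample wells minus 3.6 SD, in any replicate, cut at about 0.56 in these data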;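 further: stock transfer was 300 nL into about 60 µL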
FGF22 binding – binders of human FGF22 protein, primary screen, FGF22 synaptogenesis inhibitor project, biophysical, thermal shift, single point; Fibroblast growth factor 22 (Homo sapiens), Q9HCT0; calls only at 9.99 µM; recombinant FGF22 thermal shift, SYPRO orange fluorescence; percent of sucrose octasulfate shift, DMSO zero; actives 1.5% (n = 340,000); AID 651658, 2012;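 active means melting point raised past a set limit in the mean and every replicate; inconclusive means no clear call; three in four hits are not shown here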
HNF4A DNA FP – change in binding of human HNF4A to DNA, primary screen, biochemical, fluorescence polarization, FITC-DNA; 1 h; activity change, % at 10 µM; actives 0.3% (n = 360,000); in the data active means activity change above about 30%, passing the limit was not always enough;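 further: controls were the assay level and a saturating level of protein; the project sought stronger binding though the title names inhibitors; some compounds called inactive have numbers as strong as hits; positive values seem to mean higher polarization but the record does not say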
Target sequence (P41235 whole entry, looked up): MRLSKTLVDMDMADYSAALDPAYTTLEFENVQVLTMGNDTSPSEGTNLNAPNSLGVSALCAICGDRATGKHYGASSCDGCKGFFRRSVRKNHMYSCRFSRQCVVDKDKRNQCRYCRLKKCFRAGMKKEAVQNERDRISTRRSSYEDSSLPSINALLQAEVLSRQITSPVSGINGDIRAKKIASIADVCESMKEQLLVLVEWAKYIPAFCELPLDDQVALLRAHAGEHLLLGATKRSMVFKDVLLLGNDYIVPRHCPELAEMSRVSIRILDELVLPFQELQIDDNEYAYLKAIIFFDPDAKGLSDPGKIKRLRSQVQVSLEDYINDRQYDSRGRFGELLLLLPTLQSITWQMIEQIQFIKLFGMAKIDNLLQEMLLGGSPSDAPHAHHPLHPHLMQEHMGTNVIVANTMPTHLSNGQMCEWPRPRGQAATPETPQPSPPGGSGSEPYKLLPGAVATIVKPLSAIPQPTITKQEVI
* marks the source's active call; other numbers are inactive results; i = inactive; ? = inconclusive; . = no result given.

SMILES	Beta2AR agonist	LANA-H2B inh	UCH37 inh	ALR inh	Ecoli growth	FGF22 binding	HNF4A DNA FP
C[C@H](CO)N1C[C@H](C)[C@@H](CN(C)Cc2ccncc2)Oc2c(NC(=O)CCC(F)(F)F)cccc2C1=O	-1	-2.4	-3.5	-1	0.74	.	0.2
Cc1csc(NC(=O)C(NC(=O)c2ccccc2F)C(C)C)n1 (stereo unspecified)	4	-1.3	1.0	-8	0.71	i	-2.2
COc1ccc(N2CCN(C(=O)/C(C#N)=C/c3ccccc3)CC2)cc1	16	8.2	1.5	34	0.68	i	2.0
Cc1ccc(NC(=O)CCCNC(=O)c2ccc(Cl)cc2)c(Br)c1	-4	3.4	1.6	.	0.65	i	1.2
O=C1c2ccc3c4c(ccc(c24)C(=O)N1c1ccc2ccccc2c1)CC3	2	1.6	-34	.	0.74	.	2.7
CC(=O)C(C)n1c(CN(C)Cc2ccccc2)nc2c1c(=O)n(C)c(=O)n2C (stereo unspecified)	-1	3.1	.	2	.	i	2.3
N#CC(C#N)=NNc1ccc(S(=O)(=O)N2CCCC2)cc1	27	5.2	18	15	0.65	.	1.2
CCOc1ccc2nc(NC(=O)CSc3ccc(Cl)cc3)sc2c1	0	2.4	2.2	-28	0.75	.	-0.9
Cc1ccc(SCC(=O)O/N=C(\N)c2cccc([N+](=O)[O-])c2)cc1	-1	2.3	.	2	.	i	-0.2
Nc1ccc(Cc2nc3c(ccc4ccccc43)[nH]2)cc1	0	-2.5	-1.8	40	0.63	i	-1.9
Cc1cccc(C(=O)NC(=S)Nc2ccc(S(=O)(=O)N3CCCCC3)cc2)c1	12	1.5	5.9	.	0.78	.	3.1
CCN(CC(=O)Nc1ccccc1C(F)(F)F)C(=O)CCc1nc2ccccc2c(=O)[nH]1	0	0.8	0.4	-6	0.63	i	5.9
O=C(CCc1ccccc1)n1nc(-c2ccccc2)nc1NCc1ccco1	0	-1.7	1.5	0	0.74	i	-2.1
O=C(CCn1c(=S)[nH]c2cc3c(cc2c1=O)OCO3)NCc1ccccc1Cl	1	-2.3	5.0	-7	0.69	i	-0.3
NC(=O)c1ccccc1NC(=O)c1ccoc1	-6	-13	-3.0	-14	0.7	i	0.4
CCCn1nc(C(=O)NCC(C)(C)N2CCOCC2)c2ccccc2c1=O	-4	6.4	2.3	1	0.77	.	-2.4
COc1ccc(S(=O)(=O)Nc2nnc(C(C)(C)C)s2)cc1	2	-5.8	3.5	-3	0.69	i	-2.6
CCn1cc(CNC(=O)C2C3CCC(C3)C2C(=O)O)cn1 (stereo unspecified)	-4	-0.1	-1.9	-4	0.73	.	-0.7
CN(CC(=O)Nc1ccc(F)c(F)c1)S(=O)(=O)c1cccs1	-14	3.5	1.1	-11	0.69	i	-1.1
CCOCCCn1c(NN)nc2ccccc2c1=O	-4	-2.9	-1.5	-20	0.66	i	3.3
CNC(=S)Nc1cc(C(F)(F)F)ccc1Cl	1	0.0	1.0	0	0.62	i	-0.7
O=C(Nc1cc(C(F)(F)F)ccc1N1CCOCC1)C1Cc2ccccc2CN1C(=O)c1ccco1 (stereo unspecified)	1	1.9	4.6	-8	0.68	.	4.3
CCCc1ccc2oc(C(=O)N3CCNC(=O)C3CC(=O)OC)c(C)c2c1 (stereo unspecified)	-4	8.2	-0.7	-10	0.72	i	4.4
OCc1ccc(-c2ccccc2)c(-c2ccccc2)c1	3	-3.5	1.8	-4	0.67	i	4.2
Cc1ccc2nc(Cl)c3cc(C(=O)N(CCN(C)C)Cc4ccco4)sc3c2c1	16	-3.0	-1.4	-4	0.67	i	5.6
CCCC[n+]1ccn(-c2nc3ccccc3nc2[N-]S(=O)(=O)c2ccccc2)c1	-7	1.2	-104	-3	0.71	i	-3.2
CC(=O)Cc1c(C(=O)O)c(C)nn1-c1ccccc1	2	11	1.8	.	0.68	i	-0.8
COc1cccc(Cn2cccc(NC(=O)Nc3ccccc3C)c2=O)c1	1	4.6	-11	.	0.67	.	0.0
COc1ccc(CC(=O)Nc2ccc(-c3nnc(-c4ccc(C)cc4)o3)cc2)cc1	6	-4.4	-36	0	0.78	.	-0.5
COc1ccc(C(C(=O)NCc2ccc(F)cc2)N(Cc2cccnc2)C(=O)c2snc(C(N)=O)c2N)cc1 (stereo unspecified)	4	-2.7	-66	2	0.65	i	-0.5
CCc1nn(C(C)C(=O)N2CCN(c3ccc(OC)cc3)CC2)c(=O)c2cc3occc3n12 (stereo unspecified)	-9	-2.0	-0.2	?	0.68	i	0.5
Cc1cccc(C(=O)Nc2ccc(C(=O)/C=C/c3cccs3)cc2)c1	11	-3.7	7.5	2	0.69	.	-0.5
Cc1ccc(OC(=O)C2CSC3(C)CCC(=O)N23)c(Br)c1 (stereo unspecified)	3	-2.5	3.9	32	0.7	i	1.7
CN1N=C(C(C)(C)C)CSC1=Nc1ccc(F)cc1	6	-1.8	2.2	-2	0.7	i	-1.7
NNc1nnc2c3cc(F)ccc3n(Cc3ccccc3)c2n1	-2	0.1	8.7	.	0.66	i	3.4
COc1ccc(CNC(=O)C2CCCN(C(=O)Nc3ccccc3OC)C2)cc1 (stereo unspecified)	-1	-2.6	2.3	.	0.69	i	2.4
CC(=O)c1ccc(OCC(O)CN2C(C)CCCC2C)cc1 (stereo unspecified)	-2	-0.8	2.6	-10	0.71	i	1.5
Cc1cc(C(=O)CSc2nc(N)cc(=O)[nH]2)c(C)n1-c1ccc(OC(F)F)cc1	5	1.5	1.6	.	0.71	i	1.9
Cc1csc(NC(=O)c2ccccc2[N+](=O)[O-])n1	.	-0.7	4.7	-12	0.68	.	0.3
CSc1ccc(C(=O)C2CCCN(Cc3cccc4nccnc34)C2)cc1 (stereo unspecified)	3	8.6	6.7	-1	0.62	i	3.7
Cc1ccc(S(=O)(=O)c2nc(S(C)(=O)=O)sc2N2CCC3(CC2)OCCO3)cc1	0	2.0	6.0	15	0.7	i	-1.8
COc1ccccc1NS(=O)(=O)c1cc(Cl)ccc1OC	4	-3.1	1.7	-2	0.73	.	2.6
COc1ccc(S(=O)(=O)Nc2ccc(-c3ccc4nnc(C)n4n3)cc2)c(OC)c1	16	.	2.5	-1	0.64	i	1.9
COc1ccc(C)cc1Nc1cc(C)nc2nc(C)nn12	11	0.8	1.9	-20	0.74	i	-5.6
COc1cc(CNc2nc(C)c([N+](=O)[O-])c(C)c2C#N)cc(OC)c1OC	37	1.4	2.5	-3	0.69	i	3.5
Cn1ccnc1C(O)(c1ccccc1)c1ccccc1	0	0.3	0.4	-2	0.67	i	-2.2
C=CCN(C(=O)CCC(=O)O)C1CC(=O)N(c2ccc(OCCC)cc2)C1=O (stereo unspecified)	-2	-3.3	5.4	-1	0.77	.	0.8
O=C(COC(=O)/C=C/c1cccs1)Nc1ccc2ccccc2c1	0	0.4	5.9	.	0.75	.	0.2

Three entries from above, ordered by their value in Beta2AR agonist, smallest number first:
compound	Beta2AR agonist
CC(=O)c1ccc(OCC(O)CN2C(C)CCCC2C)cc1 (stereo unspecified)	-2
Cn1ccnc1C(O)(c1ccccc1)c1ccccc1	0
CSc1ccc(C(=O)C2CCCN(Cc3cccc4nccnc34)C2)cc1 (stereo unspecified)	3

Next part.
SMILES	Beta2AR agonist	LANA-H2B inh	UCH37 inh	ALR inh	Ecoli growth	FGF22 binding	HNF4A DNA FP
COc1ccc(Nc2cc(C)nc3ncnn23)cc1	5	.	.	.	.	i	4.8
COc1ccc(NC(=S)N/N=C/c2ccc(F)c(F)c2)cc1	-3	-3.9	.	6	.	i	3.6
O=C1C(=O)N(Cc2ccccc2)C(=O)N1CCN1C(=O)c2ccccc2C1=O	0	0.9	0.0	.	0.7	i	2.1
CCOC(=O)c1c(C)[nH]c(C(=O)OCC(=O)N(CC(C)C)C2CCS(=O)(=O)C2)c1C (stereo unspecified)	5	-1.5	0.4	.	0.7	i	-0.8
c1ccc(COc2nsnc2N2CCOCC2)cc1	-7	-5.3	4.0	.	0.71	i	-2.2
Fc1ccc2c(c1)C(c1cccnc1)=NNC(c1cccs1)=N2	-24	-2.0	3.9	.	0.68	.	1.7
Cc1ccc2cc(CN(Cc3ccc4c(c3)OCO4)Cc3nnnn3Cc3ccco3)c(=O)[nH]c2c1	-1	-4.5	-3.8	-8	0.76	.	5.5
CCOC(=O)c1ccccc1Nc1cn(C(C)=O)c2ccccc12	-2	-0.6	-16	.	0.76	.	-1.0
Cc1cc(N2CCN(C(=O)c3ccco3)CC2)n2ncnc2n1	1	0.7	4.9	-13	0.7	.	3.5
CC(C)CCN1C(=O)c2ccc(C(=O)Nc3ccccn3)cc2C1=O	7	4.0	4.0	4	0.73	i	4.3
CCOc1ncccc1C(=O)Nc1ccc(C(=O)Nc2ccc(OC)cc2)cc1	-6	0.0	-16	-28	0.68	i	2.5
Cc1ccc(C)c(NC(=O)CCN2CCN(CCO)CC2)c1	4	4.3	1.9	-3	0.66	i	-2.2
COC(=O)c1ccc(-c2noc(CN(Cc3ccccn3)CC3CCCO3)n2)cc1 (stereo unspecified)	4	-1.9	1.2	-4	0.7	i	-0.4
COc1ncccc1C(=O)N1CCCC(N2CCN(c3cccc(Cl)c3)CC2)C1 (stereo unspecified)	4	3.5	1.0	51	0.69	i	3.5
CC(=O)OCC1=C(C(=O)O)N2C(=O)C(NC(=O)COc3ccc(F)cc3)C2SC1 (stereo unspecified)	0	.	2.1	.	0.69	i	-19
COc1ccc(CNC(=O)CSc2n[nH]c(N)n2)cc1	5	3.1	3.2	2	0.66	i	-0.2
CC(C)C(NC(=O)c1ccc(Cl)c([N+](=O)[O-])c1)C(=O)NCc1ccccn1 (stereo unspecified)	2	-1.0	4.5	-6	0.71	i	5.3
Cc1cc(C)c2nc(-c3ccccn3)cc(C(=O)Nc3ccc(S(=O)(=O)Nc4onc(C)c4C)cc3)c2c1	4	1.0	-2.3	?	0.72	.	-22
C=CCC1(C(=O)N(C)Cc2ccccc2)CCN(C(=O)OC(C)(C)C)CC1	5	-0.5	-0.4	-25	0.67	i	-1.4
CCn1ccnc1CN(C)Cc1cn(C)nc1-c1ccccc1F	-5	-1.7	2.6	11	0.68	i	2.4
CCOC(=O)c1cc(NC(=O)Nc2nccs2)c(C)nc1C	-47	-4.1	2.0	-3	0.69	i	6.6
Cc1ccc(-c2nc3ccccc3c(=O)n2CCCN2CCOCC2)cc1	-12	-3.5	-0.2	1	0.69	.	3.9
Cc1ccccc1Sc1ccc(N)cn1	5	-2.4	1.3	1	0.65	i	72*
CSc1nsc(SCC(=O)Nc2ccc(F)cc2F)n1	4	-8.1	2.3	26	0.66	i	2.0
COc1cc(S(=O)(=O)N2CCN(c3ccccc3)CC2)ccc1F	-8	-1.2	0.9	.	0.7	.	-1.3

Six entries from above, with two lines to a compound.
Below each compound – Beta2AR agonist	LANA-H2B inh	UCH37 inh	ALR inh	Ecoli growth	FGF22 binding	HNF4A DNA FP
COc1ncccc1C(=O)N1CCCC(N2CCN(c3cccc(Cl)c3)CC2)C1 (stereo unspecified)
→ 4	3.5	1.0	51	0.69	i	3.5
CC(=O)OCC1=C(C(=O)O)N2C(=O)C(NC(=O)COc3ccc(F)cc3)C2SC1 (stereo unspecified)
→ 0	.	2.1	.	0.69	i	-19
COc1ccc(CNC(=O)CSc2n[nH]c(N)n2)cc1
→ 5	3.1	3.2	2	0.66	i	-0.2
CC(C)C(NC(=O)c1ccc(Cl)c([N+](=O)[O-])c1)C(=O)NCc1ccccn1 (stereo unspecified)
→ 2	-1.0	4.5	-6	0.71	i	5.3
Cc1cc(C)c2nc(-c3ccccn3)cc(C(=O)Nc3ccc(S(=O)(=O)Nc4onc(C)c4C)cc3)c2c1
→ 4	1.0	-2.3	?	0.72	.	-22
C=CCC1(C(=O)N(C)Cc2ccccc2)CCN(C(=O)OC(C)(C)C)CC1
→ 5	-0.5	-0.4	-25	0.67	i	-1.4

A portion of the library. The share of hits here may be higher or lower than overall.
